Screens deposited in PubChem by Broad Institute.
DUX4 inh: DUX4-mediated transcription inhibition; 0.8% of 37,000 active; activity change, negative = inhibition, % (concentration not given with the values); 293T-iDUX4 ZSCAN4-Gaussia luciferase reporter, 24 h; active compounds read low; AID 1224904;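 active means -10% or lower and over 25 points stronger than a control reporter; inconclusive means -10% or lower with a smaller gap; inactive means above -10%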;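 further: 0% = median of neutral control wells and -100% = median of positive control wells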
DUX4 inh difference: second read-out of DUX4 inh, no call of its own (marks repeat the call); Gaussia minus Italica difference, %; measured here: selective DUX4 reporter inhibition;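 worked out from the two reporters; negative = selective loss of the DUX4 reporter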
DUX4 inh control: further read-out of DUX4 inh, marked with its call; activity change, negative = inhibition, %; measured here: Italica tet-on control reporter;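 0 = neutral control and -100 = positive control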
The depositor's hits bear a star; u = inconclusive; x = not tested or not shown; & = joins results of further samples.

SMILES	DUX4 inh	DUX4 inh difference	DUX4 inh control
COc1cccc(S(=O)(=O)Nc2ccc3c(c2)[C@H]2C[C@H](CC(=O)N4CCCCC4)O[C@H](CO)[C@H]2O3)c1	-5	-2	-3.0
OC[C@H]1[C@H](c2ccc(C#Cc3ccccc3)cc2)[C@H]2CN(CC3CCOCC3)CCCCN21	-8	-4	-3.6
C[C@@H](NC(=O)[C@@H]1[C@@H](CO)[C@@H]2Cn3c(cccc3=O)[C@@H]2N1C(=O)C1CC1)c1ccccc1	-4	0	-4.6
CO[C@H]1CN(C)C(=O)c2cc(C#N)ccc2OC[C@@H]2O[C@H](CC[C@H]2OC)CCN(C)C(=O)[C@@H]1C	-1	4	-4.9
CCCNC(=O)N(C)C[C@H]1Oc2cc(C3=CCCC3)ccc2S(=O)(=O)N([C@H](C)CO)C[C@H]1C	-4	-5	0.9
C[C@@H](O)C#Cc1ccc([C@@H]2[C@@H](CO)N3CCCCN(S(=O)(=O)c4ccccc4)C[C@@H]23)cc1	8	7	1.0
CC(C)CC#Cc1ccc([C@H]2[C@H]3CN(C(=O)NC(C)C)CC(=O)N3[C@H]2CO)cc1	5	8	-2.8
COc1ccc2c3c([nH]c2c1)[C@H](CO)N(C(=O)c1cccc(F)c1)CC31CCN(C(C)=O)CC1	22	17	4.9
CN(C)C(=O)c1cccc(-c2ccc([C@@H]3[C@@H](CO)N4CCCCN(C(=O)C5CCC5)C[C@@H]34)cc2)c1	0	1	-1.0
CO[C@H]1CN(C)C(=O)c2cc(NC(=O)NC(C)C)ccc2OC[C@H](C)N(Cc2ccccc2)C[C@@H]1C	-2	-3	1.5
COc1ccc(CN2[C@H](CO)[C@H]3c4ccccc4N(C(=O)Nc4ccc(F)cc4)C[C@H]32)cc1	0	-1	0.3
C/C=C/c1ccc([C@@H]2[C@H](C#N)N(C(=O)c3cccnc3)[C@H]2CO)cc1	3	4	-0.2
CN1CCN(C(=O)C[C@@H]2CC[C@@H]3[C@H](COc4ccc(NC(=O)c5cccs5)cc4C(=O)N3C)O2)CC1	-6	-6	0.5
O=C(C[C@@H]1CC[C@H](NC(=O)C2CCOCC2)[C@@H](CO)O1)Nc1nccs1	7	8	-0.8
CNC[C@@H]1Oc2ccc(NC(=O)Cn3cnnn3)cc2C(=O)N([C@H](C)CO)C[C@H]1C	5	2	3.0
COc1ccc2c3c(n(C)c2c1)[C@H](CO)N(CC1CC1)CC31CCN(S(=O)(=O)c2cn(C)cn2)CC1	6	-1	7.0
Cn1cnc(CCNC(=O)C[C@@H]2CC[C@@H]3[C@H](COC[C@@H](O)CN3C(=O)Nc3ccc(Cl)cc3)O2)c1	12	6	6.3
C[C@H](CO)N1C[C@H](C)[C@H](CN(C)C(=O)[C@H]2CCCN2C)OCc2ccccc2-c2c(n(C)c3ccccc23)C1=O	-1	0	-0.5
C/C=C/c1ccc(C2[C@H]3CNC[C@@H]2N3S(=O)(=O)c2ccc(C)cc2)cc1 (stereo partly specified)	18&9	19&1	-0.2&8.3
O=C(C[C@@H]1CC[C@H](NC(=O)CN2CCOCC2)[C@@H](CO)O1)NC1CCC1	0	-2	1.3
CN(C)C(=O)C[C@@H]1CC[C@@H]2[C@@H](COc3ccc(NS(=O)(=O)c4cccc(F)c4)cc3C(=O)N2C)O1	-3	1	-3.8
CCCC(=O)Nc1ccc2c(c1)C(=O)N(C)C[C@@H](OC)[C@@H](C)CN(C(=O)C1CCCC1)[C@H](C)CO2	-2	-3	1.3
CC(C)c1cn(CC[C@@H]2CC[C@H](NC(=O)Nc3cc(Cl)cc(Cl)c3)[C@H](CO)O2)nn1	7	3	4.2
COCC(=O)Nc1ccc2c(c1)C(=O)N(C)[C@@H]1CC[C@@H](CC(=O)NCCCN(C)C)O[C@H]1CO2	-2	0	-1.8
CC(=O)N(Cc1cccc(F)c1)C[C@H]1[C@@H](c2ccccc2)[C@@H](CO)N1C(C)=O	-1	-3	1.7
O=C(c1ccccn1)N1CC[C@@H]2[C@H]1c1cc(Br)ccc1N[C@@H]2CO	8	6	1.8
CNC(=O)C[C@@H]1CC[C@@H]2[C@@H](COc3ccc(NC(=O)C4CC4)cc3C(=O)N2C)O1	3	1	1.6
C[C@H]1CN([C@@H](C)CO)C(=O)CCCn2cc(nn2)CO[C@@H]1CN(C)Cc1cccc(C(=O)O)c1	2	1	1.0
O=C(O)C[C@H]1CC[C@H](NC(=O)c2ccncc2)[C@@H](CO)O1	-6	-14	8.2
C[C@@H]1C(=O)NCCC=CC[C@H](C)Oc2ccccc2C(=O)N1C (mixture of isomers)	2	13	-11
COc1ccc2c3c([nH]c2c1)[C@@H](CO)N(Cc1cccc(F)c1)CC31CCN(Cc2ccccn2)CC1	u	x	x
Cc1ccc(S(=O)(=O)N(C)C[C@H]2Oc3ncc(Br)cc3C(=O)N([C@H](C)CO)C[C@H]2C)cc1	1	4	-2.9
CC(C)[C@H]1CC=CC[C@@H](C)Oc2ccccc2C(=O)N(C)[C@H](C)C(=O)N1 (mixture of isomers)	2	2	-0.1
C[C@@H]1CCCCO[C@@H](CN(C)S(=O)(=O)c2cccs2)[C@H](C)CN([C@H](C)CO)C(=O)c2cc(NC(=O)c3ccccc3)ccc2O1	2	2	0.6
CO[C@@H]1CN(C)C(=O)c2ccc(NC(=O)C3CC3)cc2OC[C@H](C)N(C(=O)c2ccccc2F)C[C@@H]1C	-4	-2	-2.7
COc1ccccc1-c1ccc([C@@H]2[C@H]3CN(C(=O)c4cccnc4)CCCCN3[C@H]2CO)cc1	6	21	-15
COc1ccccc1S(=O)(=O)N(C)C[C@H]1Oc2cc(/C=C/c3ccccc3)ccc2S(=O)(=O)N([C@@H](C)CO)C[C@@H]1C	-1	-1	0.3
C[C@@H]1CCCCO[C@H](CN(C)C(=O)NC2CCCCC2)[C@@H](C)CN([C@@H](C)CO)C(=O)c2cc(NC(=O)Cc3ccccc3)ccc2O1	3	2	1.6
COc1cccc(-c2ccc([C@@H]3[C@@H](C#N)N(C(=O)Cc4ccccc4)[C@@H]3CO)cc2)c1	-4	-2	-2.0
CN(C)C(=O)c1ccc(-c2ccc(C3[C@@H]4CN(C(=O)Cc5ccncc5)C[C@H]3N4)cc2)cc1 (stereo partly specified)	16	-5	22

Sorted by number of heavy atoms (lowest first): some entries from above
SMILES	DUX4 inh	DUX4 inh difference	DUX4 inh control
O=C(O)C[C@H]1CC[C@H](NC(=O)c2ccncc2)[C@@H](CO)O1	-6	-14	8.2
C[C@@H]1C(=O)NCCC=CC[C@H](C)Oc2ccccc2C(=O)N1C (mixture of isomers)	2	13	-11
O=C(c1ccccn1)N1CC[C@@H]2[C@H]1c1cc(Br)ccc1N[C@@H]2CO	8	6	1.8
CC(C)[C@H]1CC=CC[C@@H](C)Oc2ccccc2C(=O)N(C)[C@H](C)C(=O)N1 (mixture of isomers)	2	2	-0.1
COc1ccccc1-c1ccc([C@@H]2[C@H]3CN(C(=O)c4cccnc4)CCCCN3[C@H]2CO)cc1	6	21	-15
COc1ccc2c3c([nH]c2c1)[C@@H](CO)N(Cc1cccc(F)c1)CC31CCN(Cc2ccccn2)CC1	u	x	x

(listing goes on)
SMILES	DUX4 inh	DUX4 inh difference	DUX4 inh control
O=C(C1CCOCC1)N1CC(=O)N2[C@H](CO)[C@@H](c3ccc(C#Cc4cccc(F)c4)cc3)[C@H]2C1	-6	-3	-3.2
COC(=O)C[C@@H]1CC[C@H]2[C@@H](COC[C@H](O)CN2S(=O)(=O)c2ccccc2C)O1	6	10	-3.8
COc1ccc(-c2ccc3c(c2)[C@@H]2[C@@H](CCN2S(=O)(=O)c2ccc(OC)cc2)[C@@H](CO)N3C)cc1	u	x	x
CN1C(=O)c2cc(NC(=O)c3ccc(C(F)(F)F)cc3)ccc2OC[C@H]2O[C@@H](CC(=O)NC3Cc4ccccc4C3)CC[C@H]21	u	x	x
CC(=O)NC[C@@H]1[C@@H](c2ccc(-c3ccccc3)cc2)[C@@H](CO)N1C(=O)C1CCC1	2	-1	2.9
COc1cccc(-c2ccc(C3[C@H]4CNC[C@@H]3N4C(=O)Nc3ccc(C(F)(F)F)cc3)cc2)c1 (stereo partly specified)	14&7	-2&3	17&4.6
CN1CCN(C(=O)[C@H]2[C@H](CO)[C@H]3Cn4c(ccc(-c5ccncc5)c4=O)[C@H]3N2CC2CC2)CC1	2	1	1.2
O=S(=O)(c1ccc(F)cc1)N1C[C@@H]2N[C@H](C1)C2c1ccc(/C=C/c2ccccc2)cc1 (stereo partly specified)	u	10	0.8
COCC(=O)Nc1ccc2c(c1)[C@@H]1C[C@@H](CC(=O)N[C@@H](C)c3ccccc3)O[C@H](CO)[C@@H]1O2	5	5	0.8
OC[C@@H]1[C@@H](c2ccc(/C=C/c3ccccc3)cc2)[C@@H]2CN(Cc3cncnc3)CCCCN12	0	5	-4.5
CCS(=O)(=O)N[C@@H]1C=C[C@H](CC(=O)NCc2ccccn2)O[C@@H]1CO	1	6	-4.9
CN(C)C(=O)C[C@@H]1CC[C@H]2[C@H](COc3ccc(NC(=O)c4ccc(F)cc4)cc3C(=O)N2C)O1	2	-5	6.6
CCC(=O)Nc1ccc2c(c1)OC[C@@H](C)N(Cc1ccccc1F)C[C@@H](C)[C@H](OC)CN(C)C2=O	-8	-8	-0.5
C[C@H](CO)N1C[C@H](C)[C@H](CN(C)S(=O)(=O)c2ccc(C#N)cc2)OCc2cnnn2CCCC1=O	3	3	0.7
COc1ccc(S(=O)(=O)Nc2ccc3c(c2)CC(=O)N([C@H](C)CO)C[C@H](C)[C@H](CN(C)S(=O)(=O)c2cn(C)cn2)O3)cc1	4	4	-0.5
CO[C@@H]1CC[C@H]2CCN(C)C(=O)CCCN(C)C(=O)c3cc(C#N)ccc3OC[C@@H]1O2	-3	-5	2.2
CC(C)NC(=O)N1CCCCN2[C@H](CO)[C@@H](c3ccc(C#C[C@@H](C)O)cc3)[C@@H]2C1	15	0	14
O=S(=O)(c1cccs1)N1CCCCN2[C@H](CO)[C@H](c3ccc(Br)cc3)[C@H]2C1	u	x	x
CCc1cnc(N2[C@H](C#N)[C@@H](c3ccccc3)[C@H]2CO)s1	0	2	-1.3
CN1[C@@H]2CN(C(=O)C3CCOCC3)c3ccccc3[C@@H]2[C@@H]1CO	6	0	6.0

Compounds from the list above containing a thiophene ring, fused or not (three):
SMILES	DUX4 inh	DUX4 inh difference	DUX4 inh control
CN1CCN(C(=O)C[C@@H]2CC[C@@H]3[C@H](COc4ccc(NC(=O)c5cccs5)cc4C(=O)N3C)O2)CC1	-6	-6	0.5
C[C@@H]1CCCCO[C@@H](CN(C)S(=O)(=O)c2cccs2)[C@H](C)CN([C@H](C)CO)C(=O)c2cc(NC(=O)c3ccccc3)ccc2O1	2	2	0.6
O=S(=O)(c1cccs1)N1CCCCN2[C@H](CO)[C@H](c3ccc(Br)cc3)[C@H]2C1	u	x	x

Later entries
SMILES	DUX4 inh	DUX4 inh difference	DUX4 inh control
CS(=O)(=O)N1Cc2cc(C(=O)NCC3CCCCC3)nc(-c3cccc(-c4cccnc4)c3)c2[C@@H]1CCO	-1	-5	4.7
O=C(c1ccc(F)cc1)N1CCCCN2[C@H](CO)[C@@H](c3ccc(-c4ccccc4)cc3)[C@H]2C1	-7	-10	3.1
Cc1ccccc1S(=O)(=O)N(C)C[C@H]1OCc2ccccc2-c2c(n(C)c3ccccc23)C(=O)N([C@H](C)CO)C[C@@H]1C	-35*	-27*	-8.3*
O=C(C[C@@H]1C[C@H]2c3cc(NC(=O)C4CCC4)ccc3O[C@H]2[C@H](CO)O1)NCCc1ccccc1	-2	-2	0.1
C[C@@H]1CN([C@@H](C)CO)C(=O)c2ccccc2-c2ccccc2CO[C@H]1CN(C)C(=O)Nc1ccc2c(c1)OCO2	9	10	-1.1
CO[C@@H](CN(C)C(=O)c1ccccc1F)[C@H](C)CN([C@H](C)CO)S(=O)(=O)c1ccc(F)cc1	5	3	2.0
COc1ccccc1CNC(=O)C[C@@H]1C=C[C@@H](NC(=O)CC2CC2)[C@@H](CO)O1	1	2	-1.0
C[C@H]1CN([C@@H](C)CO)S(=O)(=O)c2ccc(-c3cncnc3)cc2O[C@@H]1CN(C)C(=O)NC1CCCC1	-6	-5	-1.0
CC(C)NC(=O)Nc1ccc2c(c1)C(=O)N(C)[C@@H]1CC[C@@H](CC(=O)NCc3ccc(F)cc3)O[C@@H]1CO2	-2	0	-2.2
C[C@@H]1CN([C@H](C)CO)C(=O)CCCn2nncc2CO[C@@H]1CN(C)C(=O)Nc1cccc(F)c1	2	-1	3.0
CNC(=O)C[C@H]1CC[C@H]2[C@H](COc3ccc(NC(=O)NC(C)C)cc3C(=O)N2C)O1	0	0	0.6
C[C@H](CO)N1C[C@H](C)[C@H](CN(C)C(=O)c2ccncc2)OCc2cnnn2CCCC1=O	-1	4	-5.3
O=C(Nc1ccccc1)N1C[C@@H]2[C@H](c3ccccc31)[C@@H](CO)N2CC1CCCC1	-2	1	-3.1
O=C(C[C@@H]1CC[C@@H]2[C@H](COC[C@H](O)CN2Cc2ccc(F)cc2)O1)NCCc1ccccc1	0	1	-0.6
Cc1noc(C)c1NC(=O)Nc1ccc2c(c1)CC(=O)N([C@@H](C)CO)C[C@H](C)[C@H](CN(C)S(=O)(=O)c1cccs1)O2	-2	-5	2.6

Grouped by structure, those above with a Cl atom
SMILES	DUX4 inh	DUX4 inh difference	DUX4 inh control
Cn1cnc(CCNC(=O)C[C@@H]2CC[C@@H]3[C@H](COC[C@@H](O)CN3C(=O)Nc3ccc(Cl)cc3)O2)c1	12	6	6.3
CC(C)c1cn(CC[C@@H]2CC[C@H](NC(=O)Nc3cc(Cl)cc(Cl)c3)[C@H](CO)O2)nn1	7	3	4.2

Some of the compounds tested; count on the stated rates, not on these rows.
